Methyltransferases – Primary Screen for Target Class Profiling of Small Molecule Inhibitors of Methyltransferases. hit rate 3.9% among 25,000. calls only at 40 µM. purified enzyme, MTase-Glo SAH luminescence; active compounds read low; active = -50% or lower on at least one of six enzymes; inconclusive = the cases between; inactive = as a rule above -30% on all six;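 note: enzymes were COMT GAMT GNMT HNMT NNMT and PNMT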
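Each enzyme was assayed with SAM and its substrate. SAH formation detected by MTase-Glo luminescence; single-point 40 uM screen[…].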
Calls only; i = inactive; ? = inconclusive; + = active, no number. % is set by controls: 0 for no effect and ±100 for the full control effect.

# | Structure | Methyltransferases
1 | CN1C(=O)c2cc(C(=O)NC3CCCC3)nn2CC1(C)C(=O)NCc1ccccc1 (stereo unspecified) | i
2 | CC1(C(=O)NC2CCCCCCC2)Cc2ccccc2C(=O)N1CC1CCCO1 (stereo unspecified) | i
3 | Cc1nc2c(OCc3ccccc3)cccn2c1CC#N | ?
4 | CCCSCCCN1C(=O)c2cc(-c3ccc(CC)cc3)nn2CC1(C)C(=O)NC1CCCCC1 (stereo unspecified) | i
5 | COc1cc(OC)cc(N2C(=O)c3cc(-c4ccccc4)nn3CC2(C)C(=O)NCc2ccccc2OC)c1 (stereo unspecified) | i
6 | CC(=O)Nc1c2n(c3ccccc13)CC(C)(C(=O)NCCC(C)C)N(Cc1ccccc1F)C2=O (stereo unspecified) | i
7 | Cc1c(CN(C)C(=O)/C=C/c2cnc3c(c2)CCC(=O)N3)oc2ccccc12 | i
8 | CNC(=O)[C@@H](C1CC1)N1CCC[C@H]1C(=O)N1CCOCC1 | i
9 | CN(C)S(=O)(=O)N1CC(CNC(=O)C2CC2)C2(CCCCC2)C1 (stereo unspecified) | i
10 | O=C(Cn1nc2n(CCc3ccccc3)c(=O)c3ccccc3n2c1=O)c1ccc(F)cc1 | i
11 | O=c1cc(-c2ccccc2)[nH]c2nc(Cl)ccc12 | i
12 | CC(C)CCNC(=O)C1(C)Cn2c(cc3ccccc32)C(=O)N1c1cccc(Cl)c1 (stereo unspecified) | i
13 | O=c1[nH]c2ccc(S(=O)(=O)Nc3ccc(N4CCOCC4)cc3)cc2[nH]1 | i
14 | CC(=O)c1c(C)nn(CCC(=O)N[C@@H]2CCOC[C@H]2OCCO)c1C | i
15 | O=C(CCc1nnc2n(Cc3ccc(Cl)cc3)c(=O)c3ccccc3n12)NC1CC1 | i
16 | CCCC/C=C\CCCCCc1cc(=O)c2ccccc2n1C | i
17 | CC(C)OCCCN1C(=O)c2ccc(-c3ccccc3)n2CC1(C)C(=O)NC1CCCCC1 (stereo unspecified) | i
18 | CN1C(=O)c2cc(C(=O)NCCC3=CCCCC3)nn2CC1(C)C(=O)NCc1ccc(F)cc1 (stereo unspecified) | i
19 | O=C1CO[C@H]2CN(c3ncccn3)C[C@H]2N1CC1CCCCC1 | i
20 | CCC(C(=O)NCCc1ccccc1)n1ccc2cc(S(=O)(=O)N3CCCCC3)ccc21 (stereo unspecified) | i
21 | Cc1ccccc1-c1cn(C)c(=O)n2cc(CNc3ccccc3)nc12 | i
22 | CC1(C(=O)NC2CCCCC2)Cn2c(cc3ccccc32)C(=O)N1Cc1ccccn1 (stereo unspecified) | i
23 | COc1ccc(-c2cnc3[nH]cc(CC(=O)N4CCNC(=O)C4)c3c2)cc1 | i
24 | CNC(=O)[C@@H]1CN(C(=O)c2ccc(F)c(Cl)c2)C[C@H]1COC | i
25 | Cc1ocnc1C(=O)N1CCC2(CCCN(CCCc3ccccc3)C2=O)C1 (stereo unspecified) | i
26 | CC1(C)CC[C@]23CO[C@@]4(CCC5[C@@]6(C)CC[C@H](O[C@@H]7OC[C@H](O[C@@H]8O[C@H](CO)[C@@H](O)[C@H](O)[C@H]8O)[C@H](O)[C@H]7O[C@@H]7O[C@H](CO)[C@@H](O[C@@H]8O[C@H](CO)[C@@H](O)[C@H](O)[C@H]8O)[C@H](O)[C@H]7O)[C@@](C)(CO)C6CC[C@@]5(C)[C@]4(C)C[C@H]2OC2OCC(O)C(O)C2O)C3C1 (stereo partly specified) | i
27 | O=C(NC1CCCCC1)c1ccc2c(=O)nc3c(-c4ccccc4F)n[nH]n3c2c1 | i
28 | Cc1ccc(NC(=O)CSc2nnc3n(CC(C)C)c(=O)c4ccc(C(=O)NC(C)C)cc4n23)cc1 | i
29 | OCc1ccc(CN2C[C@H](O)C[C@H]2c2nc(-c3ccc(F)cc3)no2)o1 | i
30 | COc1ccc2cc3n(c2c1)CC(C)(C(=O)NCC1CCCO1)N(Cc1cccnc1)C3=O (stereo unspecified) | i
31 | CC[C@@H](C)Nc1cc(C(=O)NC2CC3CCC(C2)N3c2ccc(C(=O)C3CC3)cn2)c(C)cc1C(N)=O (stereo partly specified) | ?
32 | Nc1nc2c(nc(Sc3ccc(Cl)cc3)n2[C@@H]2O[C@@H]3COP(=O)(O)O[C@H]3[C@H]2O)c(=O)[nH]1 | i
33 | O=C(N[C@H]1CCC[C@H](CO)C1)C1CCN(c2nc3cc(Cl)c(-c4ccc(Cl)cc4)cc3o2)CC1 | i
34 | O=C(c1c[nH]c2ncccc12)N1CCC(Cc2ccccc2)CC1 | i
35 | CC1(C)C(=O)N(CC2CCOCC2)[C@H]2CN(Cc3cccnc3N)C[C@H]2[S+]1(=O)[O-] | i
36 | CCCn1c(=O)c2ccc(C(=O)NC(C)C)cc2n2c(=O)n(CC(=O)Nc3ccc(C)cc3)nc12 | i
37 | O=C(O)CC1NCCNC1=O (stereo unspecified) | i
38 | Cc1ccc(CN2C(=O)c3ccc(-c4ccccc4)n3CC2(C)C(=O)NC2CCC(C)CC2)cc1 (stereo unspecified) | i
39 | COc1ccc2[nH]cc(CCNC(C)=O)c2c1 | i
40 | Cc1cccc(Cn2nc3n(CCCOC(C)C)c(=O)c4ccccc4n3c2=O)c1 | i
41 | CCCn1c(=O)c2ccc(C(=O)NC(C)C)cc2n2c(=O)n(CC(=O)NC(C)(C)C)nc12 | i
42 | CC(C)(C)c1cc(CN2CCN(CC(O)c3ccc(Cl)cc3)CC2)cc(C(C)(C)C)c1O (stereo unspecified) | i
43 | COC(=O)C1=CO[C@@H](O[C@@H]2O[C@H](CO)[C@@H](O)[C@H](O)[C@H]2O)[C@H]2[C@@H]1[C@H](O)C[C@]2(C)O | i
44 | CC(=O)N1CCc2nn(CC(=O)Nc3ccccc3C(C)C)c(=O)cc2C1 | i
45 | Nc1ccc(-c2ccc3ccccc3n2)cc1 | i
46 | CC(C)CCNC(=O)C1(C)Cn2c(cc3ccccc32)C(=O)N1CCC(C)C (stereo unspecified) | i
47 | O=C(CCC1CCN(S(=O)(=O)c2ccccc2F)CC1)NCCCN1CCCC1=O | i
48 | CC(C)NCCCn1c(Sc2cc3c(cc2I)OCO3)nc2c(N)ncnc21 | ?
49 | C/C=C(/C)C(=O)OC1CC(C)(C)CC2C3=CCC4C5(C)CCC(O[C@@H]6O[C@H](C(=O)O)[C@@H](O)[C@H](O)[C@H]6O[C@@H]6O[C@H](CO)[C@H](O)[C@H](O[C@@H]7OC[C@H](O)[C@H](O)[C@H]7O[C@@H]7O[C@H](CO)[C@@H](O)[C@H](O)[C@H]7O)[C@H]6O)C(C)(C)C5CCC4(C)C3(C)C(O)C(O)C12CO (stereo partly specified) | i
50 | COCC(=O)N[C@H]1C[C@@H](CO)N(Cc2ccsc2)C1 | i

Remaining list, next part
No.	SMILES	Methyltransferases
51	COc1ccccc1CNC(=O)C1(C)Cn2c(cc3ccccc32)C(=O)N1CCc1ccc(SC)cc1 (stereo unspecified)	i
52	COc1ccc(CCNC(=O)CCc2nnc3n(Cc4ccccc4Cl)c(=O)c4ccccc4n23)cc1OC	i
53	CCCSCCCN1C(=O)c2cc3ccccc3n2CC1(C)C(=O)NC1CCCCC1 (stereo unspecified)	i
54	O=S(=O)(/N=C/c1c(O)ccc2ccccc12)c1cccs1	?
55	CCN1C(=O)c2c(C(=O)NCCc3ccc(OC)cc3OC)ncn2CC1(C)C(=O)NC1CCCC1 (stereo unspecified)	i
56	Cn1c(=O)n(C)c2cc(S(=O)(=O)Nc3cccc(F)c3)ccc21	i
57	OC[C@H]1O[C@@H](n2cnc3c(NC4CCCC4)ncnc32)[C@H](O)[C@@H]1O	i
58	Cc1ncc2n1C(=O)N(C1CCN(Cc3ccc(F)cc3)CC1)C2	i
59	COc1cc2c(cc1OC)[C@@H]1[C@H](O)[C@@H](OC)C=C3CCN(C2)[C@H]31	i
60	C/C(=C/CO)CC[C@@H]1[C@@]2(C)CCC[C@](C)(C(=O)O)C2CC[C@@]1(C)O (stereo partly specified)	i
61	CCc1ccc(N2C(=O)c3cc(-c4ccc(OC)cc4)nn3CC2(C)C(=O)NCc2ccccc2)cc1 (stereo unspecified)	i
62	Cc1ccc(C(=O)Cn2nc3n(CC(C)C)c(=O)c4ccc(C(=O)NC5CCCC5)cc4n3c2=O)cc1	i
63	CC(C)=CC(=O)N1C[C@@H](NC(=O)NC2CCCCC2)C[C@H]1C(=O)N[C@H](Cc1c[nH]c2ccccc12)C(N)=O	i
64	c1cc(-c2cc(C3CCNCC3)[nH]n2)ccn1	i
65	O=C(Cc1ccc(F)cc1)NCc1nnc2ccc(-c3ccc(Cl)cc3)nn12	i
66	CCCn1c(=O)c2cc(F)ccc2n2c(SCC(=O)Nc3ccccc3F)nnc12	i
67	CCC(C)C1NC(=O)C(Cc2ccccc2)NC(=O)C(CCCCCC(=O)C(O)CO)NC(=O)C2CCCCN2C1=O (stereo unspecified)	i
68	CCN1C(=O)c2ccccc2C1Nc1ccc(OCCN2CCCCC2)cc1 (stereo unspecified)	+
69	CCc1ccc(NS(=O)(=O)c2cc3c(cc2C)n(C)c(=O)n3C)cc1	i
70	CCC1(C2CCN(C(=O)CCCc3ccccc3)CC2)NC(=O)N(CCc2scnc2C)C1=O (stereo unspecified)	i

Rewritten with each value named: part of the list above.
55: CCN1C(=O)c2c(C(=O)NCCc3ccc(OC)cc3OC)ncn2CC1(C)C(=O)NC1CCCC1 (stereo unspecified)
  Methyltransferases: i

56: Cn1c(=O)n(C)c2cc(S(=O)(=O)Nc3cccc(F)c3)ccc21
  Methyltransferases: i

More compounds follow:
No.	SMILES	Methyltransferases
71	CCC/C=C/C(=O)O[C@H]1CC(C)(C)CC2[C@@]13[C@H](O)C[C@]1(C)[C@@]2(CCC2[C@@]4(C)CC[C@H](O[C@@H]5O[C@H](C(=O)O)[C@@H](O)[C@H](O[C@@H]6O[C@H](CO)[C@H](O)[C@H](O)[C@H]6O[C@@H]6O[C@@H](C)[C@H](O)[C@@H](O)[C@H]6O[C@@H]6OC[C@](O)(CO)[C@H]6O)[C@H]5O[C@@H]5O[C@H](CO)[C@H](O)[C@H](O)[C@H]5O)C(C)(C)C4CC[C@]21C)O[C@H]3O (stereo partly specified)	i
72	CCCn1c(=O)c2ccc(C(=O)NC(C)CC)cc2n2c(=O)n(Cc3cccc(F)c3)nc12 (stereo unspecified)	i
73	CC(C)c1ccc(NC(=O)c2ncn3c2C(=O)N(C2CC2)C(C)(C(=O)NCc2ccc(F)cc2)C3)cc1 (stereo unspecified)	i
74	CC1(C)CCCC2(C)C3=C(C(=O)OC3O)C(O)CC12 (stereo unspecified)	i
75	CS(=O)(=O)N(Cc1cccnc1)C1CN(C(=O)C2CCCCC2)C1	i
76	CCOc1ncc(S(=O)(=O)N2CCN(CC)CC2)cc1-c1nc2c(CC)n(CCOC)nc2c(=O)[nH]1	i
77	CCN1C(=O)Cc2cc(C(=O)NCCC(C)C)ccc21	i
78	CN1CCN(CCCNC(=O)C2CCc3sc(C(=O)N4CCCCCC4)cc3C2)CC1 (stereo unspecified)	i
79	COCCCNC(=O)c1cc2n(n1)CC(C)(C(=O)NCc1ccc(C)cc1)N(C)C2=O (stereo unspecified)	i
80	CN(C)C[C@@H]1CN(c2ncccn2)C[C@H]1NS(=O)(=O)c1cccnc1	i
81	Cc1ccc(Cn2nc3n(Cc4ccc(C)cc4)c(=O)c4ccc(C(=O)NC(C)C)cc4n3c2=O)cc1	i
82	OCC1NCC(O)C(O)C1O (stereo unspecified)	i
83	CN(C)c1ccc2ncc(Nc3cc(F)cc(N4CCOCC4)c3)n2n1	i
84	Cc1ccccc1CN1C(=O)c2cc3ccccc3n2CC1(C)C(=O)NCCCOC(C)C (stereo unspecified)	i
85	CC1CCN(S(=O)(=O)c2cc3[nH]c(=O)[nH]c3cc2Cl)CC1	i
86	CC1(C(=O)NC2CCCCC2)Cn2c(cc3occc32)C(=O)N1C1CCCC1 (stereo unspecified)	i
87	CC(=O)Nc1c2n(c3ccc(F)cc13)CC(C)(C(=O)NC1CCCCC1)N(C1CCCCCC1)C2=O (stereo unspecified)	i
88	CC(C)c1ccc(CO)cc1O[C@@H]1O[C@H](CO)[C@@H](O)[C@H](O)[C@H]1O	i
89	O=C(Cn1ccc2cc(S(=O)(=O)N3CCCCC3)ccc21)NCc1ccccn1	i
90	Cc1ccc(CCN2C(=O)CSc3c(c4ccccc4n3C)C2C(=O)NCCCOC(C)C)cc1 (stereo unspecified)	i

Laid out differently: results already given.
(83) CN(C)c1ccc2ncc(Nc3cc(F)cc(N4CCOCC4)c3)n2n1
  Methyltransferases = i
(77) CCN1C(=O)Cc2cc(C(=O)NCCC(C)C)ccc21
  Methyltransferases = i

Exported as labelled records: part of the list above
[82] OCC1NCC(O)C(O)C1O (stereo unspecified)
  Methyltransferases: i

[80] CN(C)C[C@@H]1CN(c2ncccn2)C[C@H]1NS(=O)(=O)c1cccnc1
  Methyltransferases: i

Next results follow.
No.	SMILES	Methyltransferases
91	CC1=NOC2(CCN(C(=O)c3ccccc3)CC2)C1	i
92	CC(C)c1ccc(N2C(=O)c3cc4sccc4n3CC2(C)C(=O)NC2CCCCC2C)cc1 (stereo unspecified)	i
93	COc1ccccc1CN1C(=O)c2cc3sccc3n2CC1(C)C(=O)NC1CCCC1 (stereo unspecified)	i
94	Nc1nc(=O)n([C@H]2C[C@H](O)[C@@H](CO)O2)cc1F	?
95	CCOC(=O)c1cc2n(n1)CC(C)(C(=O)NC1CCC(C)CC1)N(c1cccc(F)c1)C2=O (stereo unspecified)	i
96	CCC(C(=O)NCc1ccc(Cl)cc1)n1ccc2cc(S(=O)(=O)N3CCCCC3)ccc21 (stereo unspecified)	i
97	COc1ccc(NC(=O)CSc2nnc3[nH]c(=O)c(C(C)(C)C)nn23)cc1OC	i
98	O=C([C@@H]1C[C@H](F)CN1C(=O)NCc1ccc(OC(F)(F)F)cc1)N1CCCCC1	i
99	CC1(C(=O)NC2CCCC2)Cn2c(cc3sccc32)C(=O)N1C1CCCCCC1 (stereo unspecified)	i
100	CC(C)c1cccc(C(C)C)c1NC(=O)Nc1ccc(Sc2ccc([N+](=O)[O-])cc2)cc1	?

A portion of the library (hit frequency here may not be typical).
